# Ecoli rRNA inh – inhibitors of bacterial rRNA selective over humanized ribosomes; E. coli WT GFP vs humanized-ribosome RFP mutants, fluorescence, 24 h; stronger effect = lower value; DMSO median 0, no signal -100; GFP signal change (wild-type ribosome), % (no concentration beside the values); actives 1.6% (n = 350,000); AID 720706;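 active means significant combined selectivity score with lowered wild-type GFP, culture density cut under 30%, mutant RFP and density less affected; inactive means any of these conditions unmet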; further: one replicate is shown; some compounds called inactive have numbers as strong as hits
# MLL AF4-AF9 inh – MLL-AF4/AF9 protein interaction inhibition | AlphaScreen, biotin-AF4 peptide binding to FLAG-AF9 | inhibition, % at 10 µM | actives 0.47% (n = 350,000) | AID 651704;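 active means every replicate reaching a set inhibition limit, whatever the replicate mean, cut at about 25% in these data; inconclusive means mean inhibition reaches that limit but some replicates miss it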;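 further: 0% = plate neutral control median and 100% = total signal loss; the record names both 10 and 1 µM as test concentration; the first replicate is given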
# Target sequence (P42568 whole entry, looked up): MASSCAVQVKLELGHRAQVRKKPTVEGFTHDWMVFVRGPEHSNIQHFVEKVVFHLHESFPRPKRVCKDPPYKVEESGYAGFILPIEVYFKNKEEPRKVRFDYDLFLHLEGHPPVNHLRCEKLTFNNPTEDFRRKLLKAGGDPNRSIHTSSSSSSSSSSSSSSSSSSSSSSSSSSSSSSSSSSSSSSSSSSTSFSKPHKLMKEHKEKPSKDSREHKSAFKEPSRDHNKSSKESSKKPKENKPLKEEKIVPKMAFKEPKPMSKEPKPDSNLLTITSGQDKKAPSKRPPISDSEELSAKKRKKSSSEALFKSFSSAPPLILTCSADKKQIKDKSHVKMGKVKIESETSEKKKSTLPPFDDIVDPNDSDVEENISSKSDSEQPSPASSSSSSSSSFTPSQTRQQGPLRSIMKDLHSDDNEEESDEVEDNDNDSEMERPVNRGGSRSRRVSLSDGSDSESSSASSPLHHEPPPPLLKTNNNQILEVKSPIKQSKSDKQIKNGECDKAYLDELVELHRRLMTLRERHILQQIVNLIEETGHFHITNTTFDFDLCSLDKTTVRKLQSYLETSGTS
# FGF22 binding – binders of recombinant human FGF22 by thermal shift. Q9HCT0. calls only at 9.99 µM. SYPRO orange fluorescence; percent of sucrose octasulfate shift, DMSO zero. actives 1.5% (n = 340,000);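 active means melting point raised past a set limit in the mean and every replicate; inconclusive means no clear call; three in four hits are not shown here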
# Target sequence (Q9HCT0 whole entry, looked up): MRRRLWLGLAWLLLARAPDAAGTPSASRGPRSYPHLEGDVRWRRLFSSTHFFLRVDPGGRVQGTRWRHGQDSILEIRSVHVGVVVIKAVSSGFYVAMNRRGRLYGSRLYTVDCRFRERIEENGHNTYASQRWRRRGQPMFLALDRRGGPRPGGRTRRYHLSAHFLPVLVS
# Ecoli rRNA inh OD600 – also measured in Ecoli rRNA inh; calls as there; OD600 change, %; measured here: OD600 growth;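 optical density of the mix in the first replicate; 0 = DMSO median and -100 = no signal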
# Ecoli rRNA inh RFP – recorded beside Ecoli rRNA inh, whose call it bears; RFP signal change, %; measured here: RFP humanized mutant strains;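 first replicate; 0 = DMSO median and -100 = no signal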
# Numbers without * were called inactive; i = inactive; ? = inconclusive; . = no result given; + = active, no number; & = joins results of further samples. These rows are one share of the data; rates above refer to the full screens.
Ecoli rRNA inh	Ecoli rRNA inh OD600	Ecoli rRNA inh RFP	MLL AF4-AF9 inh	Structure	FGF22 binding
11	13	-4.6	-4.1	O=C(CC[C@H]1O[C@@H](n2ccc(=O)[nH]c2=O)[C@H](O)[C@@H]1O)NCc1ccccc1	i
0	5	-0.4	-3.0	Cc1noc(C)c1S(=O)(=O)Nc1cccc2c1O[C@@H](CN(C)C(=O)Nc1ccc(F)cc1)[C@@H](C)CN([C@@H](C)CO)C2=O	i
-4	-17	10	-4.7	CC1=C(C(=O)N(C)C)CC(CC(=O)NCC2CCCCC2)C(=O)N1Cc1ccc(C(C)(C)C)cc1 (stereo not given)	i
-19	-42	-11	-6.5	Cc1ccccc1-c1csc(C(C)(O)c2ccccc2)n1 (stereo not given)	i
12	9	6.6	-9.1	c1ccc(CCc2cccnc2)cc1	i
11	-1	-0.5	-0.7	O=[N+]([O-])c1cc2ccccc2nc1-c1ccccc1	.
0	-8	1.3	-2.0	CCC(=O)N(C)C[C@@H]1Oc2cc(C#CC(C)C)ccc2S(=O)(=O)N([C@H](C)CO)C[C@H]1C	i
3	4	-1.7	-2.3	CO[C@H]1CN(C)C(=O)c2cc(NC(C)=O)ccc2OC[C@@H](C)NC[C@H]1C	i

# A portion from the list above, for reference:
Ecoli rRNA inh	Ecoli rRNA inh OD600	Ecoli rRNA inh RFP	MLL AF4-AF9 inh	Structure	FGF22 binding
-19	-42	-11	-6.5	Cc1ccccc1-c1csc(C(C)(O)c2ccccc2)n1 (stereo not given)	i
12	9	6.6	-9.1	c1ccc(CCc2cccnc2)cc1	i
11	-1	-0.5	-0.7	O=[N+]([O-])c1cc2ccccc2nc1-c1ccccc1	.
0	-8	1.3	-2.0	CCC(=O)N(C)C[C@@H]1Oc2cc(C#CC(C)C)ccc2S(=O)(=O)N([C@H](C)CO)C[C@H]1C	i
3	4	-1.7	-2.3	CO[C@H]1CN(C)C(=O)c2cc(NC(C)=O)ccc2OC[C@@H](C)NC[C@H]1C	i

# (more compounds)
Ecoli rRNA inh	Ecoli rRNA inh OD600	Ecoli rRNA inh RFP	MLL AF4-AF9 inh	Structure	FGF22 binding
-4	-2	1.9	-2.1	C[C@H](CO)N1C[C@H](C)[C@@H](CN(C)C(=O)C2CCOCC2)Oc2ncc(-c3cccc(C#N)c3)cc2C1=O	i
1	4	-1.5	-0.9	COCC(=O)N1[C@H](CO)[C@H]2c3ccccc3N(C(=O)c3ccncc3)C[C@H]21	i
2	0	-2.2	-2.0	CN1CCN(C(=O)C[C@H]2C[C@@H]3c4cc(NS(C)(=O)=O)ccc4O[C@@H]3[C@@H](CO)O2)CC1	i
2	-5	0.5	-0.6	CO[C@H](CN(C)CC1CCOCC1)[C@@H](C)CN(C(=O)Nc1ccc(F)cc1)[C@H](C)CO	i
-14	-43	20	4.5	Cc1ccc(-c2ccc3c(c2)O[C@@H](CN(C)Cc2cccnc2)[C@@H](C)CN([C@H](C)CO)S3(=O)=O)cc1	i
5	-4	9.6	-7.3	COc1ccccc1NC(=O)Nc1nnc([C@H]2C[C@H](O)[C@@H](CO)O2)s1	i
-61	-77	-18	13	CCCCc1c(-c2ccc(OC)cc2)ncn1CCc1ccccc1OC	i
2	6	-2.2	-2.1	Cc1ccc(S(=O)(=O)Nc2cccc3c2O[C@@H](CN(C)Cc2ccncc2)[C@H](C)CN([C@@H](C)CO)C3=O)cc1	i

# Entries of single compounds, looked up by structure. Order of screens: Ecoli rRNA inh	Ecoli rRNA inh OD600	Ecoli rRNA inh RFP	MLL AF4-AF9 inh	FGF22 binding
# Listed for `COc1ccccc1NC(=O)Nc1nnc([C@H]2C[C@H](O)[C@@H](CO)O2)s1` = 5	-4	9.6	-7.3	i
# Listed for `COCC(=O)N1[C@H](CO)[C@H]2c3ccccc3N(C(=O)c3ccncc3)C[C@H]21` = 1	4	-1.5	-0.9	i
# Listed for `C[C@H](CO)N1C[C@H](C)[C@@H](CN(C)C(=O)C2CCOCC2)Oc2ncc(-c3cccc(C#N)c3)cc2C1=O` = -4	-2	1.9	-2.1	i
# Listed for `Cc1ccc(S(=O)(=O)Nc2cccc3c2O[C@@H](CN(C)Cc2ccncc2)[C@H](C)CN([C@@H](C)CO)C3=O)cc1` = 2	6	-2.2	-2.1	i

# More results follow:
Ecoli rRNA inh	Ecoli rRNA inh OD600	Ecoli rRNA inh RFP	MLL AF4-AF9 inh	Structure	FGF22 binding
2	13	-0.3	-2.9	CC=Cc1ccc2n(c1=O)C[C@@H]1[C@@H](CO)[C@H](C(=O)NCC)[C@H]2N1C(=O)Nc1cc(F)ccc1F (mixture of isomers)	i
-1	-8	-1.0	-5.8	C[C@H](CO)N1C[C@H](C)[C@@H](CN(C)C(=O)Nc2ccc(C(F)(F)F)cc2)Oc2ccc(NC(=O)Nc3cccc4ccccc34)cc2C1=O	i
7	4	0.6	2.7	CC1CN(C(=O)COC(=O)c2cncc(Br)c2)CC(C)O1 (stereo not given)	i
-41	-64	-13	34*	CCCC(=O)NC(c1cccc([N+](=O)[O-])c1)c1ccc2cccnc2c1O (stereo not given)	i
-1	-6	2.9	2.3	CC(C)NC(=O)N(C)C[C@@H]1Oc2ncc(/C=C/c3ccccc3)cc2C(=O)N([C@H](C)CO)C[C@@H]1C	i
1	-4	-3.6	?	C[C@@H]1CCCCO[C@H](CN(C)C(=O)CCC(F)(F)F)[C@@H](C)CN([C@H](C)CO)C(=O)c2cc(NS(=O)(=O)c3ccc(F)cc3)ccc2O1	i
3	7	-2.0	-1.5	CCCS(=O)(=O)NC(=O)C1(C)CCN(C(=O)c2ccccc2OC(C)=O)C1 (stereo not given)	i
0	4	-0.1	-0.3	CO[C@H]1CN(C)C(=O)c2ccc(NC(C)=O)cc2OC[C@H](C)N(C(=O)CN2CCOCC2)C[C@@H]1C	i
-10	-28	-3.9	5.7	C/C=C/c1ccc2c(c1)O[C@H](CN(C)Cc1ccccn1)[C@@H](C)CN([C@H](C)CO)S2(=O)=O	i
4	7	-1.4	0.2	CC(C)NC(=O)N[C@@H]1CC[C@@H](CCNC(=O)C2CCCC2)O[C@H]1CO	i
2	5	-0.6	-0.4	Cc1ccc(S(=O)(=O)N[C@@H]2CC[C@H](CC(=O)NCc3ccncn3)O[C@@H]2CO)cc1	i
-5	-17	5.5	11	CN(C)c1ccc2c(c1)[C@H]1C[C@H](CC(=O)NCc3ccc(Oc4ccccc4)cc3)O[C@@H](CO)[C@H]1O2	i
5	1	-8.2	2.3	O=C(Nc1ccc2c(c1)OCCO2)C(CCc1ccccc1)N1CCN(c2ccc(F)cc2)CC1 (stereo not given)	i
1	8	2.7	0.5	C[C@H]1CN([C@@H](C)CO)C(=O)c2cc(C#CC3CC3)cnc2O[C@@H]1CN(C)Cc1ccccn1	i
-35	-54	22	-1.9	C[C@H]1CN([C@@H](C)CO)S(=O)(=O)c2ccc(C#Cc3ccccc3F)cc2O[C@@H]1CN(C)C(=O)Cc1cccnc1	+
-3	-12	2.6	1.7	COc1cccc(NC(=O)N(C)C[C@H]2Oc3cc(-c4ccccc4OC)ccc3S(=O)(=O)N([C@H](C)CO)C[C@@H]2C)c1	i
-22	-52	1.2	-2.2	CC(C)NC(=O)c1cccc2c(-c3ccc(F)c(F)c3)coc12	i
4	4	-1.3	-1.8	O=C(C[C@H]1CC[C@H](NC(=O)c2ccccc2)[C@@H](CO)O1)NCCc1ccncc1	i
1&1	16&4	1.6&-1.5	-0.4&2.7	COc1ccc(NC(=O)N(C)C[C@@H]2Oc3cc(C#CCN(C)C)ccc3S(=O)(=O)N([C@H](C)CO)C[C@H]2C)cc1	i
-1&3	-1&4	-3.6&-2.3	-2.6&-0.9	C[C@@H]1CN([C@H](C)CO)C(=O)CCCn2nncc2CO[C@H]1CN(C)S(=O)(=O)c1cccs1	i
0	1	1.6	-1.2	CNC[C@H]1Oc2ccc(NS(=O)(=O)c3ccc(OC)cc3)cc2C(=O)N([C@@H](C)CO)C[C@@H]1C	i
4	9	-1.9	-5.5	C[C@H](CO)N1C[C@H](C)[C@H](CN(C)C(=O)c2ccc3c(c2)OCO3)Oc2ncc(C#CCN(C)C)cc2C1=O	i
1	3	-0.9	-0.8	C[C@H](CO)N1C[C@H](C)[C@@H](CN(C)Cc2ccc(C(=O)O)cc2)OCCCC[C@H](C)Oc2ccc(NC(=O)Nc3ccccc3)cc2C1=O	i
-9	-2	4.1	-4.0	CCN(CC)C(=O)C1=C(C)N(CCCOC)C(=O)C(CC(=O)NC(c2ccccc2)c2ccccc2)C1 (stereo not given)	i
2	5	-1.6	-1.1	CO[C@@H]1CN(C)C(=O)c2cc(NC(=O)NC(C)C)ccc2OC[C@H](C)N(C)C[C@@H]1C	i
-2	-6	-1.4	8.7	COCC(=O)Nc1ccc2c(c1)C(=O)N(C)C[C@@H](OC)[C@@H](C)CN(Cc1ccccc1F)[C@H](C)CO2	i
-5	-13	3.9	-0.2	Cc1ccc(S(=O)(=O)N(C)C[C@H]2Oc3c(NS(=O)(=O)c4ccc(Cl)cc4)cccc3C(=O)N([C@H](C)CO)C[C@H]2C)cc1	i
1	15	1.3	-5.2	O=C(Nc1ccc(NC(=S)NC(=O)c2ccco2)cc1)c1ccc(Br)cc1	.
9	11	1.1	0.3	COc1ccc2[nH]c3c(c2c1)CCN1C(=O)C(CC(=O)NCCN2CCOCC2)C[C@H](C(=O)N2CCCCC2)[C@@]31C (stereo not given in full)	i
-3	0	0.3	0.2&-2.6	C[C@H](CO)N1C[C@H](C)[C@H](CN(C)Cc2ccccc2)Oc2ncc(-c3ccccc3)cc2C1=O	i
1	6	-1.0	-2.2	O=C(NC[C@H]1[C@@H](c2ccccc2)[C@@H](CO)N1Cc1ccccn1)C1CC1	i
5	2	1.1	0.2	C[C@H](CO)N1C[C@H](C)[C@@H](CN(C)C(=O)Nc2cccc3ccccc23)OCCCC[C@H](C)Oc2ccc(NS(=O)(=O)c3ccc(Cl)cc3)cc2C1=O	i
3	-5	6.1	0.9	C[C@@H]1CN([C@@H](C)CO)C(=O)c2cc(NS(=O)(=O)c3ccc(F)cc3)ccc2O[C@H]1CN(C)Cc1ccc(-c2ccccc2)cc1	i
0	-9	2.2	-11	O=C(Cc1ccccn1)NCC[C@H]1CC[C@H](NC(=O)Nc2ccc(Cl)cc2)[C@H](CO)O1	i
-2	7	0.5	-1.7	C[C@H]1CCCCO[C@H](CN(C)C(=O)c2ccncc2)[C@@H](C)CN([C@@H](C)CO)C(=O)c2cc(NC(=O)c3ccccc3)ccc2O1	i
6	10	-1.8	-0.7	C[C@@H]1CN([C@H](C)CO)C(=O)Cc2cc(NS(=O)(=O)c3cccs3)ccc2O[C@@H]1CN(C)C	i
6	9	-0.6	4.2	C[C@@H]1CCCCO[C@@H](CN(C)C)[C@@H](C)CN([C@@H](C)CO)C(=O)c2cc(NC(=O)Nc3ccc(F)cc3)ccc2O1	i
0	-3	1.1	-0.4	COc1ccc(S(=O)(=O)Nc2ccc3c(c2)C(=O)N([C@@H](C)CO)C[C@@H](C)[C@H](CN(C)C(=O)Nc2ccc(F)cc2)OCCCC[C@@H](C)O3)cc1	+
3	-3	1.5	3.1	C[C@H]1CN([C@@H](C)CO)C(=O)Cc2cc(NC(=O)Nc3cccc4ccccc34)ccc2O[C@@H]1CN(C)C(=O)Nc1ccc(C(F)(F)F)cc1	i
-18	-43	-8.7	-3.8	COc1ccc(CCNC(=O)c2ccc(CSc3ccc(Cl)cc3)o2)cc1OC	i
14	-12	1.4	-2.9	CC(=O)c1c(O)c(C)c(O)c2c1OC1=Cc3c(c(C)nn3C)C(=O)C12C (stereo not given)	i
-1	-7	4.9	-8.3	O=C(NCc1ccccc1)c1cc(C2CCCCN2C(=O)CCCc2ccccc2)on1 (stereo not given)	i
0	5	2.6	3.3	CN1c2ccc(-c3ccccc3)cc2[C@H]2[C@H](CCN2S(=O)(=O)c2ccccc2F)[C@H]1CO	i
-2	2	2.6	0.4	C[C@H]1CN([C@@H](C)CO)C(=O)c2cc(NS(=O)(=O)c3ccccc3)ccc2O[C@@H]1CN(C)S(=O)(=O)c1cccs1	i
-1	4	2.1	0.5	COc1ccc2c3c(n(C)c2c1)[C@@H](CO)N(C(=O)C1CCCC1)CC31CCN(C(=O)c2ccncc2)CC1	i
-3	6	-0.7	-14	C[C@H](CO)N1C[C@H](C)[C@H](CN(C)C(=O)Nc2ccccc2F)Oc2ncc(-c3ccccc3)cc2C1=O	i
3	3	-0.9	-3.0	O=C(C[C@@H]1CC[C@H](NC(=O)Nc2ccc3c(c2)OCO3)[C@@H](CO)O1)NCc1ccccc1	i
12	18	0.7	0.1	O=C(CCN1CCN(c2ccccc2)CC1)NNC(=O)Cc1ccc(Br)cc1	i
-36	-60	-4.4	-8.6	O=C(Nc1nc2cc3c(cc2s1)OCCO3)C1CCCCC1	i
-7	7	-3.1	-5.8	O=C(COc1ccc(S(=O)(=O)N2CCCC2)cc1[N+](=O)[O-])N1CCCC1	i

# Screens as filed in PubChem.
